Bioassay records (PubChem BioAssay)
2A firefly: lowers the firefly signal of an FMDV 2A StopGo reporter; HEK cells with a luciferase reporter of 2A StopGo recoding; actives 0.23% (n = 120,000); Potency, µM (top dose mostly 57.5 µM), for the others: at the top dose signal change, negative = less light; active = well fitted falling curve with a large enough effect; inconclusive = small, poorly fitted or top-dose-only effect; inactive = no such curve, though single readings can be large or run the other way; further: nearly all actives have a fitted effect of over 60% in size; overnight with compound
2A Renilla: FMDV 2A StopGo reporter, Renilla signal; HEK cells with a luciferase reporter of 2A StopGo recoding; Potency, µM (doses to about 57.5 µM), for the others: at the top dose signal change, negative = less light; actives 0.32% (n = 120,000); AID 1745857; active means well fitted falling curve with a large enough effect; inconclusive means small, poorly fitted or top-dose-only effect; inactive means no such curve, though single readings can be large or run the other way; further: nearly all actives have a fitted effect of over 55% in size; overnight with compound
Active calls of the source: *; ? = inconclusive; [ ] = remark or other dose. On the % scale 0 is the no-effect control and ±100 the full control effect; potency means the concentration at half of the fitted maximal effect. Not all compounds are listed; rates above refer to the full screens.

| structure | 2A Renilla | 2A firefly |
| --- | --- | --- |
| O=C(CN1CCCN(c2ccc(C(F)(F)F)cn2)CC1)Nc1ccccc1Cl | ? | ? |
| CCC(CC)NC(=O)CSc1nc2ncccc2c(=O)n1-c1ccccc1 | -11% | -10% |
| COc1ccc(OCC(=O)Nc2cc3c(cc2C(=O)c2ccc(C)cc2)OCCO3)cc1 | -10% | -3% |
| O=C(Cc1ccc(Br)cc1)NCc1cccc(C(=O)Nc2ccccc2)c1 | -6% | -7% |
| CCOC(=O)N1CCc2c(sc3c2c(=O)n(-c2ccc(F)cc2)c(=O)n3CC(=O)c2ccccc2)C1 | 5% | -8% |
| CCc1ccc2oc(-c3ccc(NC(=O)CC(C)C)cc3)nc2c1 | 13% | 213%[activator] |
| Cc1ccc(C(=O)c2oc3ccccc3c2NC(=O)Cc2coc3ccc(C)cc23)cc1 | 51%[activator] | -5% |
| O=C(CCc1ncc(-c2ccccc2)o1)NCCSCc1ccccc1 | 7% | 24% |
| Cc1sc2ncn(CC(=O)Nc3cccc(C(F)(F)F)c3)c(=O)c2c1S(=O)(=O)N1CCN(C)CC1 | -6% | -25% |
| Cn1nc(C(=O)OCC(=O)NCC2CCCO2)c2ccccc2c1=O (stereo not given) | -9% | 0% |
| Cc1ccc(C(=O)OCC(=O)c2cc(C)n(Cc3ccccc3)c2C)o1 | 10% | 167%[activator] |
| COc1ccc(C(CNC(=O)c2n[nH]c(=O)c3ccccc23)N2CCCCC2)cc1 (stereo not given) | -19% | -11% |
| Cc1nc2ccc(C(=O)NCCCN3CCOCC3)cc2nc1C | -6% | 0% |
| COc1ccc(C(=O)Nc2ccc3oc(-c4ccccc4C)nc3c2)cc1OC | -16% | 140%[activator] |
| COc1ccc(Oc2coc3cc(OC(=O)c4cccc(OC)c4)ccc3c2=O)cc1 | 5% | -3% |
| O=C(O)c1ccc(CNCc2ccccc2Cl)s1 | ? | 7% |
| Cc1ccc(C(=O)NC(c2cccs2)C(C)C)cc1C (stereo not given) | -4%[1.06 µM] | ? |
| CCOc1ccc(C2CCCN2S(=O)(=O)c2cc(F)cc(F)c2)cc1 (stereo not given) | ? | ? |
| CC(C)n1ccc2nc3ccn(-c4ncn[nH]4)c(=O)c3cc2c1=O | 34%[activator] | 88%[activator] |
| CCOc1ccc(-c2nc(SC(C(C)=O)C(=O)N(C)C)c3c(=O)n(C)c(=O)n(C)c3n2)cc1 (stereo not given) | -9% | -10% |
| Cc1ccc2cccc(NC(=O)COc3ccccc3[N+](=O)[O-])c2n1 | -8% | -6% |
| COc1nn(CSP(=S)(OC)OC)c(=O)s1 | -1%[114 µM] | -13%[22.9 µM] |
| Cc1nc(C#N)c(N2CCN(C(=O)CN3CCC(C)CC3)CC2)o1 | -10% | -14% |
| CN(CC(=O)Nc1ccc2c(c1)OC1(CCCCC1)O2)Cc1cccs1 | 44%[activator] | -7% |
| CCCCCc1ccc(C(=O)C(C)C)cc1 | 5% | 22% |
| O=C(Nc1ccc(C(=O)OCc2cc(=O)n3nc(C4CC4)sc3n2)cc1)c1cccc(Cl)c1 | 68%[activator] | 46%[activator] |
| COc1ccc(C2=C(C)C(=O)N(Cc3ccc(C(=O)Nc4ccc(F)cc4C)cc3)S2(=O)=O)cc1 | 38%[activator] | -23% |
| CN1CCN(Cc2nc3c(c(=O)n(C)c(=O)n3C)n2Cc2ccccc2F)CC1 | 1% | 0% |
| CC1=C(C(=O)c2ccccc2)C(NC(=O)CC(C)C)(C(F)(F)F)C(=O)N1Cc1ccccc1 (stereo not given) | 20% | -18% |
| CC1(C)CC(=O)C2=C(C1)NC1=C(C(=O)CC(C)(C)C1)C2c1ccc(C#N)cc1 | 48%[activator] | 0% |
| CCC(=O)N1CCc2cc(Br)cc(S(=O)(=O)N3CCCC(C(=O)NCc4ccc(OC)cc4)C3)c21 (stereo not given) | 186%[activator] | -18% |
| CC(=O)Nc1ccc(S(=O)(=O)Nc2ccc(-c3nncn3C)cc2)cc1 | 1% | 7% |
| CC(C)CC(NC(=O)NC(C)c1ccccc1)C(=O)O (stereo not given) | 4% | 2% |
| Cc1ccccc1C(=O)OCc1cc(=O)n2nc(C3CC3)sc2n1 | 4% | 145%[activator] |
| Fc1cccc(CSc2c[nH]c3ccccc23)c1 | 4% | 0% |
| CCCCNc1ncnc2c1nnn2C | 7% | 3% |
| CCCCCn1c(NCc2ccccc2OC)nc2ccccc21 | ? | ? |
| CSc1cccc(NC(=O)c2cccc(Cl)c2Cl)c1 | 18% | 114%[activator] |
| COc1ccc(CC(=O)NCc2nnc3ccccn23)cc1OC | -8% | -1% |
| O=C(NC1CCCC1)c1ccc2c(=O)n(Cc3ccccc3)c(SCc3cccc(F)c3)nc2c1 | -8% | -15% |
| Cc1ccccc1NC(=O)CC1C(=O)NCCN1C(=O)c1cccc(Cl)c1 (stereo not given) | 6% | -4% |
| COc1cc(C2CC(=O)Nc3c2c(=O)[nH]c2nc4ccccc4n32)ccc1O (stereo not given) | -8% | 9% |
| Fc1ccccc1CNCCCSc1nnnn1-c1ccccc1 | 6% | -6% |
| Cc1ccc(Cn2c(=O)n(CCCCC(=O)NCc3ccc4c(c3)OCO4)c(=O)c3ccccc32)cc1 | -9% | -3% |
| COc1ccccc1N(Cc1cc2ccccc2[nH]c1=O)C(=O)c1ccccc1 | 24% | -3% |
| Cc1ccccc1C(=O)NC(NC(=O)c1ccccc1C)c1ccccc1F | 38%[activator] | 0% |
| CCc1nnsc1C(=O)NCC1(c2ccc(F)cc2)CC1 | -4% | 6% |
| COc1cc(C(=O)OCCOc2ccc(F)cc2)cc(OC)c1OC | 36%[activator] | 15% |
| Cc1noc2ncnc(N3CCCC(C(=O)NCCC(C)C)C3)c12 (stereo not given) | ? | ? |
| O=C(/C(=C/c1ccsc1)C(=O)C(F)(F)F)c1ccccc1 | 25% | 51%[activator] |
| CCCNC(=O)NC(=O)CNc1cccc(C)c1C(=O)OC | -2% | 1% |
| COc1ccc(-c2nc(C#N)c(N3CCN(C(=O)c4cccs4)CC3)o2)cc1 | 4% | 23% |
| CN(Cc1cccc(F)c1)C(=O)Cn1c(=O)c2c(ncn2C)n(C)c1=O | 2% | 7% |
| Cc1cccc(C(=O)Nc2cc(-c3ccccc3F)nn2-c2ccccc2)c1 | 12% | -8% |
| CCOC(=O)c1c(C)[nH]c(C(=O)OCc2ccc(C(=O)OC)cc2)c1C | -1%[1.06 µM] | 9% |
| COc1ccccc1NC(=O)/C=C/c1nc2ccccc2o1 | -7% | 58%[activator] |
| CCOC(=O)C1CCN(S(=O)(=O)c2cc(-c3cc(C)no3)ccc2C)CC1 | -11% | -15% |
| Cc1ccc(CNC(=O)CCS(=O)(=O)c2ccc3c(c2)CC(C)N3C(=O)C2CC2)cc1 (stereo not given) | 7% | -1% |
| CCOc1ccc(OCCSc2nc3ccccc3o2)cc1 | 2% | 0% |
| Cc1ccc2c(=O)cc(C(=O)Nc3nnc(CC(C)C)s3)oc2c1 | -10% | -4% |

7 of the compounds above, with values under each structure.
Value order – 2A Renilla	2A firefly
O=C(NC1CCCC1)c1ccc2c(=O)n(Cc3ccccc3)c(SCc3cccc(F)c3)nc2c1
→ -8%	-15%
Cc1ccccc1NC(=O)CC1C(=O)NCCN1C(=O)c1cccc(Cl)c1 (stereo not given)
→ 6%	-4%
Cc1noc2ncnc(N3CCCC(C(=O)NCCC(C)C)C3)c12 (stereo not given)
→ ?	?
CC(=O)Nc1ccc(S(=O)(=O)Nc2ccc(-c3nncn3C)cc2)cc1
→ 1%	7%
CCOC(=O)C1CCN(S(=O)(=O)c2cc(-c3cc(C)no3)ccc2C)CC1
→ -11%	-15%
Cc1ccccc1C(=O)NC(NC(=O)c1ccccc1C)c1ccccc1F
→ 38%[activator]	0%
CCOc1ccc(OCCSc2nc3ccccc3o2)cc1
→ 2%	0%

The list goes on:
| structure | 2A Renilla | 2A firefly |
| --- | --- | --- |
| C[N+](C)(C)CC(C[N+](C)(C)C)OCc1ccccc1 | 7% | -7% |
| Cc1ccc(C)c(OCC(O)Cn2nnc(-c3cccnc3)n2)c1C (stereo not given) | -8% | -2% |
| COc1ccc(OC)c(S(=O)(=O)Nc2cccc(-c3ccc(N4CCCCC4)nn3)c2)c1 | 25% | 62%[activator] |
| Cc1cccc(C(=O)Nc2sc3c(c2C(=O)O)CCCC3)c1 | ? | 62%[activator] |
| Cc1ccc(C)c(CN2C(=O)c3ccccc3S(=O)(=O)c3ccc(C(=O)N4CCN(c5ccccc5)CC4)cc32)c1 | 18% | 15% |
| CCOc1ccc(S(=O)(=O)NCC(c2ccco2)S(=O)(=O)c2cccs2)cc1 (stereo not given) | 257%[activator] | -10% |
| O=C(Cn1cc(C(=O)c2ccco2)c2ccccc21)Nc1ccc(Br)cc1 | 1% | -9% |
| O=S(=O)(Nc1nc2ccccc2nc1Nc1ccc(F)cc1)c1cccc(Cl)c1 | ? | 6.3µM* |
| Cc1oc(-c2ccccc2Cl)nc1CS(=O)(=O)CC(=O)NC(C)c1ccccc1 (stereo not given) | 30%[activator] | -18% |
| Cc1c(C(=O)NC(c2ccc(F)cc2)c2nccn2C)oc2ccc(F)cc12 (stereo not given) | -9% | -14% |
| Clc1ccc(COc2ccc(CNCC3CCNCC3)cc2)cc1 | ? | ? |
| CCC(C)[C@H](NC(=O)C1CCC(Cn2nnc3ccccc3c2=O)CC1)C(=O)O (stereo not given in full) | -2% | 30% |
| CCc1cc(=O)oc2cc(OCC(=O)NCCC#N)ccc12 | -9% | -3% |
| Cc1cc(C(=O)N/N=C/c2ccncc2)cs1 | 58%[activator] | 29% |
| COc1ccc(OC)c(S(=O)(=O)Nc2cc(C(=O)NC(C)C)ccc2N2CCNCC2)c1 | 7% | 0% |
| CC(NC(=O)c1ccc[n+]([O-])c1)c1ccc2ccccc2c1 (stereo not given) | 0% | 0% |
| O=C(CSc1nc2ccsc2c(=O)n1-c1ccc(Cl)cc1)NCc1ccc(Cl)cc1 | -12% | -13% |
| O=C(Cn1ncc2c1-c1ccccc1OC2)N1CCN(c2ccccc2)CC1 | -9% | -1% |
| O=C(CNC(=O)c1ccccc1Cl)NCCN1CCc2ccccc2C1 | -5% | -2% |
| CCN(CC)C(=O)CSc1nc(-c2ccccc2)cc(-c2ccc(OC)cc2)c1C#N | 10% | -4% |
| COc1ccc(-n2cc(-c3ccccc3)c3c(NCc4cccc(Cl)c4)ncnc32)cc1 | 0% | -5% |
| CCCCCNC(=O)c1cc2c(=O)n3ccccc3nc2n1C | -9% | 82%[activator] |
| N#Cc1ccc(F)c(CSc2nnc(N)s2)c1 | -5% | 0% |
| C[C@@H](CO)N(Cc1cn(Cc2ccccc2)nn1)S(=O)(=O)c1ccc(F)cc1Br | 10% | -6% |
| CC(=O)Nc1ccc2c(C(C(=O)O)N3CCN(c4nc5c(cc4C#N)CCCC5)CC3)c[nH]c2c1 (stereo not given) | -14% | -10% |
| O=c1n(Cc2ccc([N+](=O)[O-])cc2)c2ccccc2c2nc(-c3ccccc3)nn12 | -3% | -4% |
| CCCCc1ccc(NC(=S)NCCCOC(C)C)cc1 | 6% | -16% |
| CC(CCc1ccco1)NC(=O)c1ccc(S(C)(=O)=O)cc1 (stereo not given) | -3% | 16% |
| O=C(CN1CCN(c2nccs2)CC1)NCc1ccccc1F | -4% | 39%[activator] |
| CCc1sc(Nc2cccc(Cl)c2C)nc1-c1cc2cccc(OC)c2oc1=O | -6% | 0% |
| COc1ccc(N2CCN(C(=O)CCc3nnc4n(C)c(=O)c5sccc5n34)CC2)cc1 | -19% | -33% |
| O=C(Nc1ccc2c(c1)OCCO2)C(=O)c1c[nH]c2cc(F)ccc12 | 16% | 165%[activator] |
| COc1ccc(S(=O)(=O)N2CCN(c3ccccc3F)CC2)cc1-c1noc(C)n1 | -9% | -1% |
| CCOc1ccc(/C=C/c2nc(C#N)c(N3CCN(c4ccccc4)CC3)o2)cc1 | 2% | -6% |
| CCCCN1C(=O)C(O)(CC(=O)c2c(C)n[nH]c2C)c2ccccc21 (stereo not given) | 12% | -3% |
| CC(Oc1ccc(Cl)cc1Cl)C(=O)N1CC(=O)Nc2ccccc21 (stereo not given) | -7% | -1% |
| CCc1ccc(CNC(=O)c2nn(-c3ccc(OC)c(Cl)c3)c(=O)c3c2c2ccccc2n3C)cc1 | -11% | -20% |
| COc1ccc(-n2nc3c(N4CCCC(C(=O)NCc5ccc(C)cc5)C4)nnc(C)c3c2C)cc1 (stereo not given) | 82%[activator] | 17% |
| CCCc1nc2ccccc2c(C(=O)OCC(=O)NC(=O)NC(C)C)c1CC | ? | ? |
| COc1cccc(NC(=O)CCc2c(C)c3ccc(O)c(C)c3oc2=O)c1 | -10% | -6% |
| CC1(C)CC(=O)C2=C(C1)N(c1cccc(C(F)(F)F)c1)C(N)=C(C#N)C21C(=O)Nc2ccccc21 (stereo not given) | -3% | -8% |
| CCc1c(C)sc2nc(NCC(C)O)n3nc(-c4ccco4)nc3c12 (stereo not given) | 39%[activator] | 0% |
| Cc1ccc(NC(=O)CCN2CCN(Cc3ccccc3)CC2)cc1Br | -7% | 5% |
| CN(Cc1cccs1)C(=O)COc1cc2oc(=O)cc(-c3ccccc3)c2cc1Cl | 29% | -14% |
| O=C(O)C1CCN(c2ccc3nnc(C(F)(F)F)n3n2)CC1 | -4% | -7% |

Four entries from above, field by field:
> COc1ccc(N2CCN(C(=O)CCc3nnc4n(C)c(=O)c5sccc5n34)CC2)cc1
  2A Renilla: -19%; 2A firefly: -33%

> CC(Oc1ccc(Cl)cc1Cl)C(=O)N1CC(=O)Nc2ccccc21 (stereo not given)
  2A Renilla: -7%; 2A firefly: -1%

> COc1cccc(NC(=O)CCc2c(C)c3ccc(O)c(C)c3oc2=O)c1
  2A Renilla: -10%; 2A firefly: -6%

> CCOc1ccc(/C=C/c2nc(C#N)c(N3CCN(c4ccccc4)CC3)o2)cc1
  2A Renilla: 2%; 2A firefly: -6%
